# Bioassay records as filed in PubChem BioAssay.
# Rce1 inhib = yeast Ras-converting enzyme inhibition; yeast membranes, quenched prenylated peptide cleavage fluorescence; calls only; 290,000 tested, 0.27% active; AID 2563;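 active = fall in fluorescence gain of 50% or more versus controls, with final raw signal at or below 3038400; inconclusive = same 50% fall but final raw signal above 3038400; inactive = fall in fluorescence gain under 50%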;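 note: plate controls were neutral control wells for no effect and wells lacking membranes for full effect; tested at 10 µM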
# Target sequence (Q03530 whole entry, looked up): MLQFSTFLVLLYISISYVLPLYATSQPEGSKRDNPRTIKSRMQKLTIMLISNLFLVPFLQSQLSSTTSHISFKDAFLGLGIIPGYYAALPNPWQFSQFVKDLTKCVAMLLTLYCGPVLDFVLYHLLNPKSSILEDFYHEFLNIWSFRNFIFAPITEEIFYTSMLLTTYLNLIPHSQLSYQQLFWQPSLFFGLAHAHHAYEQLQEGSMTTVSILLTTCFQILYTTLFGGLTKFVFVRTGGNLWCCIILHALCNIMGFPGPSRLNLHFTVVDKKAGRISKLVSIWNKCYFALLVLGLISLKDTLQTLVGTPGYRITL
# eIF4H inh = inhibitors of RNA binding by human eIF4H | Q15056 | eIF4H fluorescence polarization binding assay | inhibition, % at 35 µM | 290,000 tested, 0.94% active | AID 2012;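 active = 50% or more with normal probe brightness, or confirmed in later tests; inconclusive = above 50% with abnormal brightness, or retests that disagree; inactive = below 50% or failed in later tests; about a fifth of its hits are not listed in these tables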;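 note: calls also rest on retests at 20 µM and on dose response follow-up; 0% = protein and probe with vehicle and 100% = probe without protein; strong numbers were not always called active; many hits fall short of the cut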
# CSC inhib = cancer stem cell inhibition. inhibition, % at 7.5 µM. 300,000 tested, 1.1% active. cancer stem cell-like cells viability, luminescence;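 active = mean at 75% or more and at least half the replicates too; inconclusive = mean and replicates disagree; tested in HMLE shEcad cells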;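 note: 0% = median of negative and 100% = median of positive control wells; the first replicate is given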
# UUG fidelity = yeast start codon fidelity modulation. S. cerevisiae UUG-firefly luciferase reporter, luminescence/redox ratio. activity score, % at 18.7 µM. 350,000 tested, 0.13% active. AID 602363;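 active = replicate mean at a twofold rise or more, about +100% in these data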;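 note: firefly luciferase made from a UUG start codon reports start codon fidelity; reporter light over untreated wells divided by growth signal over untreated wells; some hits fall short of that in this replicate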
# MT1-MMP act inh = inhibitors of human MT1-MMP activation | P50281 | HT1080 RFP-PRO-GFP cells, GFP/RFP ratio fluorescence, overnight; percent of plate control window, DMSO zero | GFP/RFP ratio change, % at 20 µM | 360,000 tested, 0.061% active | AID 651647;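 active = GFP/RFP ratio change of at least 30% with cell ATP level not reduced by more than half and red fluorescence within 50% of control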; note: strong numbers were not always called active
#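 Test system: HT1080 RFP-PRO-GFP cells; Benchmarks: DMSO and RFP-L50D-GFP cell wells; Timing: cells overnight before dosing, compound overnight, 37 °C, 5% CO2; Compound: one 20 µM compound dose with 1% DMSO; Read-out: GFP/RFP fluorescence ratio.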
# PABP FP inh = PABP-poly(A) binding inhibition | 290,000 tested, 1% active | PABP-poly(A) RNA binding, fluorescence polarization | inhibition, % at 35 µM | P11940;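 active = 50% or more with normal probe brightness, or confirmed in later tests; inconclusive = above 50% with abnormal brightness, or retests that disagree; inactive = below 50% or failed in later tests; about a fifth of its hits are not listed in these tables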;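 note: calls also rest on retests at 20 µM and on dose response follow-up; controls were probe without protein and protein plus probe with vehicle; some compounds called inactive have numbers as strong as hits; many hits fall short of the cut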
# Target sequence (P11940 whole entry, looked up): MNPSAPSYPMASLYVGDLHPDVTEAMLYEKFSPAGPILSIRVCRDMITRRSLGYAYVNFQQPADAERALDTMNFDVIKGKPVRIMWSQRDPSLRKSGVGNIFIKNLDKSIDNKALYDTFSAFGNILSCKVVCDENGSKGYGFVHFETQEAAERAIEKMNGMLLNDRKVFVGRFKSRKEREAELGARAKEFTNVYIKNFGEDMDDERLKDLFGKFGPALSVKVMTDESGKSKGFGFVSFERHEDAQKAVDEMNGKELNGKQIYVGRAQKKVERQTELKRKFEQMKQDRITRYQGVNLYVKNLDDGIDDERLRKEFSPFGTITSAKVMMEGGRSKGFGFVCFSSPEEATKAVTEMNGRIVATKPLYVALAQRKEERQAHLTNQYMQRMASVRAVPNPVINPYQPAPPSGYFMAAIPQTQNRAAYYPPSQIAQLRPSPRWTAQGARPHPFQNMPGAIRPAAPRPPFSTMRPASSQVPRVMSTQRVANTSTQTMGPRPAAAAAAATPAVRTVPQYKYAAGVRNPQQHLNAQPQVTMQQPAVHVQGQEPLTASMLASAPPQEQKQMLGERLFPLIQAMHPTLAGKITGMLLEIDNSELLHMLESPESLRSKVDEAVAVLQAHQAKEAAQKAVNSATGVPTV
# HIV Env fusion = inhibitors of HIV Env-mediated cell fusion; HeLa-JRFL Env/CEM21 cell fusion, luciferase; inhibition, % at 12.3 µM; 360,000 tested, 1.1% active; AID 651610;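 active = mean replicate inhibition score of at least 50 and every replicate individually at or above 50; inconclusive = only one of the two criteria met; inactive = mean below 50 and not all replicates reaching 50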;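 note: 0% = plate neutral controls and 100% = maraviroc near 300 nM; one replicate is shown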
# MT1-MMP act inh RFP = recorded beside MT1-MMP act inh, whose call it bears; RFP signal change, %; measured here: RFP expression control read;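 0 = vehicle wells; hits needed this value within 50% of zero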
# The depositor's hits bear a star; i = inactive; ? = inconclusive; · = no result given. Some of the compounds tested; count on the stated rates, not on these rows.
SMILES,Rce1 inhib,eIF4H inh,CSC inhib,UUG fidelity,MT1-MMP act inh,MT1-MMP act inh RFP,PABP FP inh,HIV Env fusion
Nc1nonc1-n1nnc(C(=O)N/N=C/c2cc(Cl)ccc2O)c1CN1CCCCCC1,i,·,?,-25.5,0.8,0.8,·,-45.2
Nc1nonc1-n1nnc(C(=O)N/N=C/c2cc(Br)ccc2O)c1CNc1ccccc1,i,5.5,97.3*,-6.0,-1.6,-3.7,-5.7,-0.3
CC(C)n1nccc1N(Cc1ccc(C#N)cc1)S(=O)(=O)c1ccccc1,i,-9.9,-0.8,-8.9,-2.5,-2.2,-6.3,-1.2
Cc1cccc(NC(=O)CSc2ccc3nnc(-c4cccnc4)n3n2)c1,i,-9.7,-3.8,-19.7,1.8,2.2,5.5,-14.4
Cc1cc(NC(=O)CCC(=O)N(Cc2ccco2)C(C(=O)NC2CCCC2)c2ccccc2C)no1 (stereo not given),i,-12.4,-1.3,8.5,-6.1,-1.9,1.5,-104.9
COc1cccc(/C=C/C(=O)OCC(=O)Nc2cc(S(=O)(=O)N3CCOCC3)ccc2C)c1,i,1.1,·,-4.7,0.8,-1.0,-17.9,7.1
CCN1CCN(C(=O)CCc2nc3ccccc3n2-c2ccccc2)CC1,i,-3.1,-11.6,-14.7,-0.9,2.0,0.0,-73.2
CC1Nc2ccccc2C(=O)N1NS(C)(=O)=O (stereo not given),·,-4.2,-4.7,·,-3.1,0.8,0.3,-0.8
COc1ccc(C(=O)NC(C)c2cc(OC)c(OC)cc2Br)cc1 (stereo not given),i,5.2,-7.6,-22.0,6.2,-3.4,-1.7,31.8
O=C(NC1CCN(Cc2ccccc2)CC1)c1ccccc1,i,8.6,·,-9.2,1.9,2.4,26.9,-6.4
O=C(NCCN1CCOCC1)c1ccc(S(=O)(=O)Nc2ccccc2)cc1,·,·,-13.4,-23.2,-0.5,-0.5,·,2.7
Cc1cccnc1C(NC(=O)C1CCN(Cc2ccc3ccccc3n2)CC1)c1ccc(Cl)cc1 (stereo not given),·,·,·,2.4,1.2,-1.7,·,26.2
CC(=O)c1ccc(NC(=O)CN2CCN(c3ncccn3)CC2)cc1,i,-2.2,-5.4,0.3,3.4,3.4,14.1,-0.1
CCN1C(=O)C2C(C1=O)N1C(c3cccs3)C3C(=O)N(CC)C(=O)C3N1C2c1cccs1 (stereo not given),i,-9.3,-8.0,5.6,-5.1,-4.4,-5.5,·
CS(=O)(=O)N1CCc2cc(C(=O)N3CCN(c4ccc(F)cc4)CC3)ccc21,i,-7.0,1.5,-10.3,1.3,-1.6,5.2,-4.4
O=C(NC1CCCN(Cc2ccc(Cl)cc2)C1)c1c(F)ccc(F)c1F (stereo not given),i,0.6,-7.9,-14.6,·,·,-2.1,-0.6
CN(C)CCN(C(=O)C1CCN(S(=O)(=O)c2cccs2)CC1)c1nc2ccccc2s1,i,·,-5.5,1.7,1.1,6.7,·,6.2
Cn1c(N/N=C/c2cccs2)cc(=O)n(C)c1=O,i,4.1,2.5,-11.8,-2.0,2.0,8.7,·
Cc1[nH]nc2c1C(c1ccoc1)C(C#N)=C(N)O2 (stereo not given),i,·,2.2,-11.2,2.1,3.5,·,10.2
Cc1ccc(-c2nnn(CC(=O)Nc3ccccc3N3CCOCC3)n2)cc1,i,-10.7,-13.6,-10.8,6.4,-8.0,-20.1,·
COc1cc(N=Nc2ccc3ccccc3c2)ccc1O,i,10.2,93.0*,-28.8,11.5,5.8,-3.6,-183.1
N#CCC1c2ccccc2CCN1C(=O)Nc1cccc(Cl)c1 (stereo not given),i,-5.0,·,-11.6,5.4,-6.8,-9.7,·
CCOC(=O)C1=C(N)Oc2c(oc(CO)cc2=O)C1c1ccc(Cl)cc1 (stereo not given),i,-5.5,-0.3,·,0.5,-1.8,-1.2,5.5
COc1ccc(/C=N/NC(=O)c2nnn(-c3nonc3N)c2-c2cccs2)cc1OC,i,-14.9,1.8,-21.3,-5.0,-4.8,9.9,4.4
COc1cccc(/C=N/n2nnc3c(cnn3-c3ccccc3)c2=O)c1,·,-9.6,-2.6,-18.4,-0.8,2.9,-5.9,·
CC(=O)c1c(C)n(C)c2ccc(O)cc12,i,-5.1,-16.8,-15.2,2.0,-5.0,7.9,·
CC(=O)NC(CC(=O)Nc1cccc(S(=O)(=O)N2CCCCC2)c1)c1ccccc1 (stereo not given),i,-3.4,-11.0,3.1,4.3,6.1,-1.1,·
COc1cccc(NC(=O)Nc2ccc3c(c2)N(C)C(=O)CS3)c1,i,-0.2,-19.5,5.1,11.3,-8.2,-3.6,7.3
COc1ccc(OCCSc2nnc(-c3cccnc3)n2N)cc1,i,-3.8,-6.5,-8.8,2.7,1.8,-6.9,-37.2
CCCNC(=O)c1ccccc1NC(=O)c1ccccc1N(C)S(=O)(=O)c1ccccc1,i,1.9,·,10.3,0.5,1.3,6.1,72.3*
CCN1CCN(S(=O)(=O)c2ccc(Cl)c(C(=O)Nc3ccc(OC(F)F)cc3)c2)CC1,i,-4.1,-4.8,-11.9,4.0,-2.7,-3.2,-6.3
COc1cccc(-c2cc(C(F)(F)F)c3c(N)c(C#N)sc3n2)c1,i,?,-3.2,·,·,·,?,·
Cc1ccc(NC(=O)C2CCCN2S(=O)(=O)c2ccc3c(c2)CCC(=O)N3)cc1Cl (stereo not given),i,-13.2,·,-10.7,6.8,-5.1,-8.9,25.7
CCN(CC)CCNC(=O)C1(O)c2cc(Br)ccc2NC(=O)N1c1cccc(OC)c1 (stereo not given),i,4.3,-7.7,-2.5,-1.8,-2.2,5.7,2.8
COc1cccc(NS(=O)(=O)c2ccc3c(c2)CCCN3C(C)=O)c1,i,-0.7,-5.0,·,1.2,-6.2,5.1,·
CN(C(=O)CSc1nc(C2CC2)nc2ccccc12)c1nc(-c2ccccc2)cs1,i,-3.2,25.5,-22.7,-6.2,-5.0,-4.1,-23.5
CCc1ccc(NC(=S)N2CCC(NC(=O)c3ccccc3)CC2)cc1,i,0.2,·,-17.6,-1.5,-3.6,-1.3,1.5
O=C(CSc1ccccc1Cl)NC1CCCc2ccccc21 (stereo not given),i,41.3,6.0,·,0.3,0.3,8.1,-3.2
COc1cccc(/C=N/NC(=O)CC(=O)NCCc2ccc(OC)c(OC)c2)c1,i,-13.5,-1.7,-6.0,-5.2,-0.7,-3.5,-22.6
COc1ccccc1/C=C1\SC(=S)N(CCC(=O)Nc2cccc(O)c2)C1=O,i,2.5,27.1,1.3,4.8,1.8,-16.4,69.7*
CCCCC1=CC2=C(c3ccco3)C(=O)C(C)(OC(=O)c3ccc(OC)cc3)C(=O)C2=CN1CCCOC(C)C (stereo not given),i,?,3.4,-7.0,-14.9,1.0,?,3.6
CCNC(=O)C1(C)CCCN1C(=O)c1ccc(C#N)cc1 (stereo not given),·,·,·,10.3,2.0,4.7,·,-4.0
COc1ccc(-n2nc(C(=O)NCCCN3CCOCC3)c3ccccc3c2=O)c(OC)c1,i,-0.6,-11.4,-23.0,0.7,3.6,1.1,-4.4
CC(C)(C)OC(=O)N1CCC(C(=O)Nc2ccc3c(c2)CCC3)CC1,·,·,·,-1.4,6.0,4.5,·,0.7
CCc1nnc(NC(=O)C2CCCO2)s1 (stereo not given),i,-2.5,-17.3,·,-6.2,1.1,14.3,-2.8
C[N+](C)(C)CC/C=C1/c2ccccc2CSc2ccccc21,i,-6.0,21.5,-8.9,-7.5,0.0,-8.3,·
c1ccc(-c2nnc(-c3ccco3)o2)cc1,i,-6.0,-1.4,-10.9,0.9,0.4,-0.4,·
Cc1ccc(S(=O)(=O)N2CCOCC2)cc1NC(=O)CSc1nnc2n1CCCCC2,·,·,-8.0,-9.0,-4.2,0.7,·,-5.7
Cc1ccc(S(=O)(=O)N(CC(=O)N/N=C/c2cccc3c2OCCO3)c2ccccc2F)cc1,·,6.0,14.3,-7.2,2.6,-1.0,-4.8,·
Cn1c2ccccc2c2cc(C(=O)O)ccc21,i,1.1,3.5,·,6.9,3.2,-1.6,·
# (more compounds)
SMILES,Rce1 inhib,eIF4H inh,CSC inhib,UUG fidelity,MT1-MMP act inh,MT1-MMP act inh RFP,PABP FP inh,HIV Env fusion
CC1(C)CC(=O)c2cc(C(=O)NC3CCSC3=O)c(=O)n(-c3ccc(Cl)cc3)c2C1 (stereo not given),i,3.9,-4.1,·,0.4,2.9,-4.7,34.3
CCC(=O)Nc1ccc2nn(-c3ccc(F)cc3)nc2c1,i,1.4,30.8,-19.0,1.7,-0.7,11.3,-122.5
COC(=O)c1ccccc1-c1cn(C)c2ccccc2c1=O,i,-3.3,12.1,-8.5,0.3,2.7,-4.5,-7.7
COc1ccc(CNC(=O)C2CCN(S(=O)(=O)N3CCOCC3)CC2)cc1,i,-11.4,20.9,-5.8,4.9,2.1,3.8,·
COc1ccc(Cn2c(=O)[nH]c3cc(C(=O)NCCCN4CCCC4=O)ccc3c2=O)cc1,i,0.4,-10.3,-1.4,-2.4,-2.8,1.2,-22.3
COc1ccc(/C=C/C(=O)NCCc2c[nH]c3ccccc23)cc1OC,i,-6.9,2.1,9.7,3.8,-2.1,7.9,-4.3
C/C(Cn1nnc([N+](=O)[O-])n1)=N\NC(=O)c1ccccc1O,i,-7.3,-10.2,-17.9,10.0,-17.1,-3.1,-8.9
CC1=C(C(=O)N2CCOCC2)CC(CC(=O)NCCCCc2ccccc2)C(=O)N1Cc1ccc(F)cc1 (stereo not given),·,·,·,-6.0,1.1,4.1,·,-39.2
CCn1c(CC(=O)Nc2ccccc2)nnc1SCC(=O)NC1CCCC1,i,-11.1,·,-16.8,1.4,3.2,-9.9,6.5
CCn1c(C)[n+](CC)c2ccc(C(=O)N(C)c3ccccc3)cc21,i,-3.5,-8.4,·,-4.6,0.5,62.1*,-0.7
Cc1cccc2[nH]c(CN(C)C(=O)CC3C(=O)NCCN3CC(C)(C)C)nc12 (stereo not given),i,-2.4,-9.1,·,-6.5,4.4,5.4,-7.3
Cc1cc(NC(=O)c2ccccc2-c2ccccc2)ccc1Br,i,4.7,15.0,·,-9.4,-15.2,9.0,·
COc1cccc2cc(C(=O)Nc3ccc(F)cc3)c(=Nc3ccc(C(=O)O)cc3)oc12,i,-10.7,·,-13.2,3.7,-2.2,18.8,4.4
CC(=O)Nc1ccccc1NS(=O)(=O)c1ccc(Cl)cc1,i,1.9,4.5,7.1,-0.4,-2.4,2.9,30.2
Cc1cc(C)c2nc(N3CCC(C(=O)NCCCN4CC(C)CC(C)C4)CC3)sc2c1 (stereo not given),i,4.5,14.8,·,-1.7,-5.0,-4.2,-22.0
C=CCn1c(=O)c2ccccc2n2c(SCc3csc(-c4ccccc4)n3)nnc12,i,-1.1,-5.7,-16.6,-0.1,-2.1,8.5,·
